Compound activity deposited in PubChem BioAssay by several laboratories.
CSC inhib = cancer stem cell inhibition; actives 1.1% (n = 300,000); inhibition, % at 7.5 µM; AID 2717; cancer stem cell-like cells viability, luminescence;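 active means mean at 75% or more and at least half the replicates too; inconclusive means mean and replicates disagree; tested in HMLE shEcad cells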;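 further: 0% = median of negative and 100% = median of positive control wells; the first replicate is given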
MT1-MMP act inh = MT1-MMP (human) activation inhibition. P50281. HT1080 RFP-PRO-GFP cells, GFP/RFP ratio fluorescence, overnight; percent of plate control window, DMSO zero. GFP/RFP ratio change, % at 20 µM. actives 0.061% (n = 360,000). AID 651647;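 active means GFP/RFP ratio change of at least 30% with cell ATP level not reduced by more than half and red fluorescence within 50% of control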; further: strong numbers were not always called active
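Assay system – RFP-PRO-GFP reporter HT1080 cells · Compound dosing – single dose of 20 µM compound, 1% DMSO final · Incubation – overnight compound exposure at 37 °C · Measure – GFP/RFP fluorescence ratio · Benchmarks – DMSO wells and RFP-L50D-GFP cells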
PABP FP inh = PABP-poly(A) binding inhibition; P11940; PABP-poly(A) RNA binding, fluorescence polarization; inhibition, % at 35 µM; actives 1% (n = 290,000);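 active means 50% or more with normal probe brightness, or confirmed in later tests; inconclusive means above 50% with abnormal brightness, or retests that disagree; inactive means below 50% or failed in later tests; about a fifth of its hits are not listed in these tables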;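 further: calls also rest on retests at 20 µM and on dose response follow-up; controls were probe without protein and protein plus probe with vehicle; some compounds called inactive have numbers as strong as hits; many hits fall short of the cut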
Target sequence (P11940 whole entry, looked up): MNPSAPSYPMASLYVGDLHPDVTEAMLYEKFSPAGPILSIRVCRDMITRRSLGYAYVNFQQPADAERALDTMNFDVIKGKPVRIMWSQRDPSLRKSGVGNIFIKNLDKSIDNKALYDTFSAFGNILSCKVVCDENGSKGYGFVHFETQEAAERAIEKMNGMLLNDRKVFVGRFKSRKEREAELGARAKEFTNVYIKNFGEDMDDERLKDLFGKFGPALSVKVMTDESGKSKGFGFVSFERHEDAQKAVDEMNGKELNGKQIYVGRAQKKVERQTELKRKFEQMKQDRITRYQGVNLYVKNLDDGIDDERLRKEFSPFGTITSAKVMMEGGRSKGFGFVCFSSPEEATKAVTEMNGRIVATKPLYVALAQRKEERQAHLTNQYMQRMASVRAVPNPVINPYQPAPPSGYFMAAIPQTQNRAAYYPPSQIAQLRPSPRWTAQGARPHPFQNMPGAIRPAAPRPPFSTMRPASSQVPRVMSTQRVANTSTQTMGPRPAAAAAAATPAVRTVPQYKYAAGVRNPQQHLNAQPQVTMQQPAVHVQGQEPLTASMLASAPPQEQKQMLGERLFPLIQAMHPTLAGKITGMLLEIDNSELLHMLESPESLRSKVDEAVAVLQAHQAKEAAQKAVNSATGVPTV
eIF4H inh = inhibitors of RNA binding by human eIF4H. actives 0.94% (n = 290,000). AID 2012. inhibition, % at 35 µM. Q15056. eIF4H fluorescence polarization binding assay;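 active means 50% or more with normal probe brightness, or confirmed in later tests; inconclusive means above 50% with abnormal brightness, or retests that disagree; inactive means below 50% or failed in later tests; about a fifth of its hits are not listed in these tables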;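 further: calls also rest on retests at 20 µM and on dose response follow-up; 0% = protein and probe with vehicle and 100% = probe without protein; strong numbers were not always called active; many hits fall short of the cut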
Env fusion inh = blocks HIV Env-driven cell-cell fusion | HeLa-JRFL Env/CEM21 cell fusion, luciferase | inhibition, % at 12.3 µM | actives 1.1% (n = 360,000) | AID 651610;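 active means mean replicate inhibition score of at least 50 and every replicate individually at or above 50; inconclusive means only one of the two criteria met; inactive means mean below 50 and not all replicates reaching 50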;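 further: 0% = plate neutral controls and 100% = maraviroc near 300 nM; one replicate is shown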
UUG fidelity = yeast start codon fidelity modulation | S. cerevisiae UUG-firefly luciferase reporter, luminescence/redox ratio | actives 0.13% (n = 350,000) | activity score, % at 18.7 µM;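 active means replicate mean at a twofold rise or more, about +100% in these data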;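 further: firefly luciferase made from a UUG start codon reports start codon fidelity; reporter light over untreated wells divided by growth signal over untreated wells; some hits fall short of that in this replicate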
Rce1 inhib = blocks yeast Ras-converting enzyme; Q03530; calls only; actives 0.27% (n = 290,000); AID 2563; yeast membranes, quenched prenylated peptide cleavage fluorescence;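 active means fall in fluorescence gain of 50% or more versus controls, with final raw signal at or below 3038400; inconclusive means same 50% fall but final raw signal above 3038400; inactive means fall in fluorescence gain under 50%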;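 further: plate controls were neutral control wells for no effect and wells lacking membranes for full effect; tested at 10 µM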
Target sequence (Q03530 whole entry, looked up): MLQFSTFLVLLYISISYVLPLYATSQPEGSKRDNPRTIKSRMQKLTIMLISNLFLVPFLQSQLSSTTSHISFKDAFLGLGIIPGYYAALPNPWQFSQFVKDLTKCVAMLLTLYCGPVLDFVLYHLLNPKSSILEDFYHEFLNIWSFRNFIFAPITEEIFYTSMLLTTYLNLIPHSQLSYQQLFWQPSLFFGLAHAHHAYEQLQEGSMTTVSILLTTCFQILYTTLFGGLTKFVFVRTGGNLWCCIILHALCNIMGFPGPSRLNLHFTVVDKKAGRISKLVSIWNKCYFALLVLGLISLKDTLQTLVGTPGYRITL
eIF4H inh retest = second read-out of eIF4H inh, no call of its own (marks repeat the call); inhibition, %; compound at 20 µM; confirmation average;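 mean of two retest wells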
PABP FP inh retest = recorded beside PABP FP inh, whose call it bears; inhibition, %; compound at 20 µM; confirmation repeats;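 mean of two retest wells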
MT1-MMP act inh RFP = also measured in MT1-MMP act inh; calls as there; RFP signal change, %; measured here: RFP expression control read;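 0 = vehicle wells; hits needed this value within 50% of zero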
* = called active by the depositor; i = inactive; ? = inconclusive; / = no result given; & = joins results of further samples; [ ] = dose if it differs, or a comment.

SMILES	CSC inhib	MT1-MMP act inh	MT1-MMP act inh RFP	PABP FP inh	eIF4H inh	Env fusion inh	UUG fidelity	Rce1 inhib	others
O=C(c1ccccc1)N1CCC(CC2CC(c3ccc(Cl)cc3)=NO2)(C(=O)NCC2CCCCC2)CC1 (stereo unspecified)	13	-2	-1	-4	-10	-114	-2	i
CN1C(=O)/C(=C/c2ccc(-c3ccccc3[N+](=O)[O-])o2)SC1=Nc1ccc(Cl)c(C(=O)O)c1	10	-16	15	4	78*	/	-18	i	eIF4H inh retest=64*;PABP FP inh retest=39
O=c1[nH][nH]c(C(F)(F)F)c1C=Nc1ccccc1	-13	4	3	1	-5	13	-13	/
COc1ccc(NC(=O)Cc2ccccc2)cn1	-5	-4	0	-9	?	-15	-12	i
CC1CCC(NC(=O)c2ccc3c(c2)S(=O)(=O)c2ccccc2C3=O)CC1 (stereo unspecified)	-15	1	1	/	/	7	-9	i
O=C1CCC(C(=O)N2CCC(CO)(Cc3ccc(Cl)cc3)CC2)=NN1	-1	-1	-1	11	4	2	/	i
CSc1ccc(-c2sc(Nc3cccc4ccccc34)n[n+]2-c2ccccc2)cc1	13	5	-1	7	5	-12	-11	i
CS(=O)(=O)N(CCC#N)Cc1ccc(/C=C2\C(=O)Nc3ccccc32)o1	10	-17	-10	-5	-4	37	/	i
CC1Cc2nc(SCC(=O)N3CCN(c4ccccc4)CC3)n(CCc3ccccc3)c(=O)c2S1 (stereo unspecified)	18	-7	-8	-3	2	32	-10	i
Cc1cc(NC(c2cccnc2)c2c(C)[nH]c3ccccc23)no1 (stereo unspecified)	-13	2	9	-2	-3	/	-17	i
O=C(O)c1ccc2c(c1)C(=O)N(N1C(=O)c3ccccc3C1=O)C2=O	3	1	7	122*	-12	-3	-14	i	eIF4H inh retest=14;PABP FP inh retest=56*
O=C(c1ccc(=O)[nH]c1)N1CCN(S(=O)(=O)c2cc(C(F)(F)F)ccc2Cl)CC1	-2	-1	1	4	0	9	-11	i
COc1cccc(/C=C2\SC(=S)N(CCCC(=O)N3CCCCC3)C2=O)c1	8	-2	4	-4	?	16	-15	i
CC1(C)CC(NC(=O)c2ccccc2NS(=O)(=O)c2ccc(Br)cc2)CC(C)(C)N1	/	-1	4	/	/	2	-7	/
CCc1cccc(C)c1NC(=O)c1ccoc1C	1	-1	2	6	-3	4	-9	i
COc1ccc(S(=O)(=O)N(Cc2ccccc2)c2ccccc2C(=O)Nc2ccccc2C(=O)NCc2ccco2)cc1	59	-4	-5	-6	-2	-14	-1	i
O=C(CNC(=O)c1cc(S(=O)(=O)N2CCOCC2)ccc1N1CCCC1)Nc1ccc(F)c(F)c1	/	1	0	/	/	-14	-9	/
CC(C)[C@H](NC(=O)N1CC(=O)Nc2ccccc21)C(=O)N1CCC(C(=O)O)CC1	-4	-2	-2	/	/	-10	/	i
Cc1nnc(SCC(=O)NCc2cccs2)n1-c1ccccc1	-4	0	8	2	-2	-43	5	i
O=C(N/N=C/c1cccs1)c1cnccn1	-12	3	6	-21	-5	-6	-16	i
O=C(c1cc(-c2ccc(O)cc2)on1)N1CCc2ccccc2C1	48	5	-1	2	-6	-46	-14	i
CCC(C(=O)Nc1c(C)cc(C)cc1C)N1CCCCCC1 (stereo unspecified)	-12	0	4	-6	-11	2	-17	i
COc1cc2c(cc1OC)[C@H](C)N(C(=O)NCc1ccccc1)CC2	4	0	4	-4	-3	-5	-18	i
O=C(NCc1ccc2c(c1)OCO2)c1ccc(CS(=O)(=O)c2cccc(C(F)(F)F)c2)o1	-20	2	-3	2	-7	-37	-21	i
O=C(NCCCN1CCOCC1)C(c1ccccc1)c1ccccc1	-16	2	2	-13	-7	-3	-14	i

Continuation:
SMILES	CSC inhib	MT1-MMP act inh	MT1-MMP act inh RFP	PABP FP inh	eIF4H inh	Env fusion inh	UUG fidelity	Rce1 inhib	others
CC(C)(CSc1nncn1N)NS(=O)(=O)c1ccc(Cl)cc1	-8	3	4	-10	-6	/	2	i
Cc1cc(SCC(=O)NCCC2=CCCCC2)nc2ccccc12	/	3	3	0	-4	/	-5	i
CCCCCC1CC(=O)C=C(C)C1C(=O)OC (stereo unspecified)	-7	1	1	10	-14	0	-14	i
CCOC(=O)C1CCCN(C(=O)c2ccc(C(=O)c3ccccc3)cc2)C1 (stereo unspecified)	/	-3	-1	/	/	-3	-11	/
COc1ccc(CC(=O)NCc2n[nH]c(=S)n2-c2ccc(F)cc2)cc1	-2	-2	2	-1	2	8	/	i
CCOC(=O)c1ccccc1NC(=O)CSc1ccccc1	13	0	-3	2	1	/	-12	i
S=c1nc[nH]c2c1[nH]c1ccc(Cl)cc12	-10	4	-2	-6	-2	69*	/	i
OC1CCN(Cc2cn(Cc3ccccc3)nc2-c2cc3ccccc3o2)CC1	-4	1	0	-1	1	9	/	/
CC(NC(=O)Cc1ccccc1)C1COc2ccccc2O1 (stereo unspecified)	-6	0	0	-7	-2	-4	-15	i
Cc1cc(C(=O)CSc2nc3ccccc3c(=O)[nH]2)c(C)n1CC1CCCO1 (stereo unspecified)	10	-1	-26	1	10	-40	/	i
CCN1CCCC1CNC(=O)C(=O)Nc1cccc(OC)c1 (stereo unspecified)	4	1	6	-2	-5	8	/	i
COC(=O)CCCC(=O)NC1CCCc2c1cnn2-c1ccc(F)cc1F (stereo unspecified)	-6	1	-2	6	-2	-9	7	i
CCNc1nc(N2CCCC2)nc(N2CCCC2)n1	10	-5	-2	-1	2	12	-6	i
O=C1CC2(CCN(C(=O)c3ccc(Br)cc3)CC2)Oc2ccccc21	-8	-3	-6	/	/	4	15	i
C/C(CC(=O)Nc1cccnc1)=N\NC(=O)C(C)Oc1ccc(Cl)cc1Cl (stereo unspecified)	15	-1	0	-2	7	0	/	i
COc1ccc(CN(C)CC(=O)Nc2sc3c(c2C#N)CCC3)cc1OC	-6	2	-10	12	26	23	/	i
Cc1ccc(C)c(SCc2nc3sc(C(=O)O)c(C)c3c(=O)[nH]2)c1	-3	-4	4	-4	3	-14	-12	i
COc1ccc(N2CCN(CC(=O)Nc3cc(C)on3)CC2)cc1	-4	0	0	52	4	-1	-5	i	eIF4H inh retest=13;PABP FP inh retest=19
O=C(NNS(=O)(=O)c1ccc(F)cc1F)c1csc(-c2cccnc2)n1	-9	-3	-6	15	7	8	-8	i
N#Cc1c(SCC(N)=O)nc2c(c1-c1ccncc1)CCCC2	-20	0	1	-2	-2	-15	/	i
COc1ccc(N(C(C)C(=O)N/N=C/c2ccc(OCC(C)C)cc2)S(C)(=O)=O)cc1 (stereo unspecified)	5	4	1	-2	-9	13	/	i
CCCCN(CCCC)Cc1ccc(C(=O)NNC(=O)Nc2ccccc2)o1	-13	1	1	-4	3	19	/	i
Cc1noc(C)c1S(=O)(=O)N(CC(=O)Nc1ccc2c(c1)OCO2)c1ccc(C(C)C)cc1	/	-4	-3	4	-4	-1	-5	/
Cc1cccc(NC(=O)c2cc([N+](=O)[O-])ccc2NC2CCCCC2)c1	9	-9	-2	-5	-3	-29	/	i
Cc1onc(-c2c(F)cccc2Cl)c1C(=O)NC1CCCCCC1	-7	-2	-3	1	4	9	16	i

Reprinted from the part before: 3 entries, followed by the next part.
SMILES	CSC inhib	MT1-MMP act inh	MT1-MMP act inh RFP	PABP FP inh	eIF4H inh	Env fusion inh	UUG fidelity	Rce1 inhib	others
Cc1noc(C)c1S(=O)(=O)N(CC(=O)Nc1ccc2c(c1)OCO2)c1ccc(C(C)C)cc1	/	-4	-3	4	-4	-1	-5	/
Cc1cccc(NC(=O)c2cc([N+](=O)[O-])ccc2NC2CCCCC2)c1	9	-9	-2	-5	-3	-29	/	i
Cc1onc(-c2c(F)cccc2Cl)c1C(=O)NC1CCCCCC1	-7	-2	-3	1	4	9	16	i
CCCc1nnc(NC(=O)CCC(=O)N2CCN(c3nc(C)cc(C)n3)CC2)s1	-12	2	2	-6	-8	-3	/	i
CC1c2cc3c(cc2CCN1CC(=O)Nc1ccccc1)OCCCO3 (stereo unspecified)	-9	-1	-19	5	1	/	-4	/
C[C@@H]1CN([C@@H](C)CO)C(=O)CCCn2nncc2CO[C@H]1CN(C)Cc1ccc2c(c1)OCCO2	/	2	3	/	/	-10[16.7 µM]	-16&0	/
Cc1c(C(=O)NCc2cccc([N+](=O)[O-])c2)sc(=O)n1Cc1cccc(F)c1	/	5	-2	/	/	-10	-7	/
O=C(CSc1ncc(C(F)(F)F)cc1Cl)N1CCN(S(=O)(=O)c2ccccc2)CC1	-6	-8	-5	-8	-13	/	-11	i
Cc1csc(NC(=O)c2ccc(C)c(S(=O)(=O)N3CCOCC3)c2)n1	/	/	/	8	-1	6	/	i
O=C(OCc1ccc(COC(=O)c2cccnc2Cl)cc1)c1cccnc1Cl	1	3	-6	8	-5	-7	/	i
CCC(C)NC(=O)C1CCN(S(=O)(=O)c2ccc(OC)cc2)CC1 (stereo unspecified)	-3	2	3	1	-1	-7	4	i
CC(=O)c1ccc2noc(-c3ccc(C)cc3)c2c1	-7	-6	0	6	53	-12	/	i	eIF4H inh retest=-3;PABP FP inh retest=7
O=C(COC(=O)/C=C/c1cccc(F)c1)Nc1ccc(Cl)cn1	-7	0	4	0	-4	2	-16	i
CN(c1ccccc1C(=O)Nc1ccccc1C(=O)NCc1ccco1)S(C)(=O)=O	-5	-9	-4	-5	-5	10	-2	i
COc1ccc(C(=O)Nc2ccc3c(c2)nc(CN2CCN(C(C)=O)CC2)n3C)cc1	-6	2	-1	0	-2	/	-13	i
Cc1ccc(S(=O)(=O)CCC(=O)Nc2nc(-c3ccncc3)cs2)cc1	-7	-2	-4	13	7	-8	-4	i
O=C(COC(=O)c1cccs1)Nc1cc(S(=O)(=O)N2CCOCC2)ccc1Cl	-6	-1	1	0	-1	12	/	i
CC1CC(C)CN(C(=O)C2CCCN(S(=O)(=O)c3cccc4nonc34)C2)C1 (stereo unspecified)	-9	-1	-1	2	9	/	-4	i
Cc1cc(/C=N/n2cnnc2)c(C)n1-c1ccc(Cl)cc1	-13	-3	-3	-5	1	-32	/	i
Cc1cc(C(=O)N2CCCC(C(=O)c3ccc(Oc4ccccc4)cc3)C2)n[nH]1 (stereo unspecified)	/	0	-8	-4	-15	26	-8	i
CCCOc1ccc(S(=O)(=O)NCCCN2CCOCC2)c2ccccc12	-2	3	-3	-8	-6	/	5	i
Clc1ccc(SCc2cn3ccccc3n2)cc1	-17	-1	3	-4	2	-44	/	i
CCNC(=O)C1CC(=O)N(c2ccc(Br)cc2)C1 (stereo unspecified)	-8	-1	6	-2	-5	/	-5	i
CN(C)C(CNC(=O)c1ccc(S(=O)(=O)Nc2cccc(C(F)(F)F)c2)cc1)c1ccco1 (stereo unspecified)	-5	0	-3	/	/	/	-11	i
CCN(CC)S(=O)(=O)c1ccc(O)c(NS(=O)(=O)c2ccccc2F)c1	-7	4	6	4	2	2	-8	i
COc1ccc(CCNC(=O)CN(c2ccc(C)cc2)S(=O)(=O)c2c(C)noc2C)cc1OC	/	0	0	-5	-11	-84	7	i
O=[N+]([O-])c1cccc2c(S(=O)(=O)N3CCOCC3)cccc12	-4	0	2	3	6	-1	-31	/
CC(C)C(NS(=O)(=O)c1cccc2nsnc12)C(=O)NC1CCCCC1C (stereo unspecified)	-8	-3	-2	-1	-8	/	-6	i
